TRPML1 ag = qHTS for Agonists of the Human Mucolipin Transient Receptor Potential 1 (TRPML1). Mucolipin-1 (Homo sapiens), Q9GZU1. TRPML1-expressing cells, Ca2+ dye fluorescence, FDSS; host cell line not named in the record; reference of the full effect not given here. activation, % (concentration not given with the values). 410,000 tested, 0.12% active. AID 624414, 2012; in the data active = activation above about 50%; inconclusive = about 30% to 50%; inactive = below about 30%; also: 0% is about no effect; the text of the record puts the active cut at 80%
Target sequence (Q9GZU1 whole entry, looked up): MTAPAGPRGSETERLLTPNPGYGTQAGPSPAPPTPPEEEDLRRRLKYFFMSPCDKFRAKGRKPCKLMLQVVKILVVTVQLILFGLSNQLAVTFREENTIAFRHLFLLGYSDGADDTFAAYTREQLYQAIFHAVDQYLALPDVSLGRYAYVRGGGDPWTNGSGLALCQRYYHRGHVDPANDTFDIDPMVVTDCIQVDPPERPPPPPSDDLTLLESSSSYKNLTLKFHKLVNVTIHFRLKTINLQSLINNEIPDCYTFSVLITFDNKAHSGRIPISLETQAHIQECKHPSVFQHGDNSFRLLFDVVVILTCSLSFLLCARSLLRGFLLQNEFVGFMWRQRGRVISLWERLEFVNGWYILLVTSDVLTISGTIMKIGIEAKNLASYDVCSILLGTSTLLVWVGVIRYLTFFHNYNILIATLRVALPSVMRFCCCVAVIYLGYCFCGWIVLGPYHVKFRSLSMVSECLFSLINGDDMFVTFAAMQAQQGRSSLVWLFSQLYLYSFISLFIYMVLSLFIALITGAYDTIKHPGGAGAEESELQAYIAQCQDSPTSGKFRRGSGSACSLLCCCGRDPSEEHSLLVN
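Calcium fluorescence on an FDSS kinetic reader gave the read-out. Tet-induced TRPML1-DL cells were plated overnight, dye-loaded (Ca8 with quencher, 45-90 min, room temperature, dark), then read 110 s after compound addition, and again 110 s after 4uM final 54-4 (EC80).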
PINK1 expr mod = A Quantitative High throughput Screen to Identify Chemical Modulators of PINK1 Expression; PINK1 immunofluorescence, high-content cytometry, 24 h; Potency, µM (doses to about 76.6 µM), for the others: top-dose activation (PINK1 increase), usual class: activators; 410,000 tested, 0.2% active; AID 624263, 2012; active = well fitted activation curve with a large enough effect; inconclusive = small, poorly fitted or top-dose-only effect; inactive = flat fitted curve, though single readings scatter; cell line not stated here;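 also: potency is read from the fitted curve at half-maximal effect; % of control where 0% means no effect; nearly all actives have a fitted effect of over 65% in size; a mitochondrial uncoupler was the plate control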
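PINK1 protein, normally rapidly degraded, was detected by immunofluorescence after 24 hour compound treatment of a stable cell line. Titration data (5 concentrations) came from laser-scanning cytometry, with CCCP-treated wells as controls.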
TRPV1 potentiator = HTS Assay for Compounds that Act as Potentiators of the Vanilloid Receptor 1 | 320,000 tested, 0.02% active | AID 540277, 2011 | Transient receptor potential cation channel subfamily V member 1 (Homo sapiens), Q8NER1 | potentiation, % at 8.33 µM | TRPV1-expressing cells, Fluo-8 calcium influx, capsaicin EC20 potentiation; host cell line not named in the record; control for the full effect not named in the record; active means potentiation above 80%; inconclusive means 30% to 80%; inactive means below 30%; also: 0% is about no effect
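Cells expressing TRPV1 were dye-loaded with Fluo-8 and read kinetically: 10 s baseline, 3 min after compound (agonist portion), then 2 min after EC20 capsaicin (allosteric enhancer portion). Calcium-bound dye fluorescence at 480/520 nm.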
ClpP mod = qHTS Assay for Activators of ClpP; Potency, µM (doses to about 57.5 µM), for inactives: at the top dose activity change, negative = active; 340,000 tested, 1.9% active; purified B. subtilis ClpP, FRET peptide cleavage, 20 min; active = well fitted falling curve with a large enough effect; inconclusive = small, poorly fitted or top-dose-only effect; inactive = no such curve, though single readings can be large or run the other way; also: potency is read from the fitted curve at half-maximal effect; the source files actives as falling curves though it sought activators and does not explain the sign; nearly all actives have a fitted effect of over 65% in size; many hits overshoot -100%
Target sequence (P80244 whole entry, looked up): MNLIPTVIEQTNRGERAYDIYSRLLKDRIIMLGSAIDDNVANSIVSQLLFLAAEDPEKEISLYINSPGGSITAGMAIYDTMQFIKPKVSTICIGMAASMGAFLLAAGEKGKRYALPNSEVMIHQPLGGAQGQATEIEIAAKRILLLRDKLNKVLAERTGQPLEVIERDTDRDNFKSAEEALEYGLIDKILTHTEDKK
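FRET quenching reversal measured ClpP activation: 10 microg/mL B. subtilis ClpP at pH 8 with the FRET-FV decapeptide, read at 430 nm after 320 nm excitation. The 20-min minus 0-min signal was scaled between DMSO/no-enzyme wells and ADEP (5.8 microM final).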
Menin-MLL FL inh = qHTS Assay for Inhibitors Targeting the Menin-MLL Interaction in MLL Related Leukemias: Competition With Fluorescein Labeled MLL-derived Peptide | Fluorescence polarization, fluorescein-MLL peptide displacement from menin | AID 1766, 2009 | 290,000 tested, under 10 active | FP activity change, % at 61.4 µM; inconclusive = falling polarisation curve, or a change in total fluorescence; inactive = total fluorescence flat and polarisation flat or rising; no compound was filed as active; the % refers to the polarisation; negative = inhibition;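 also: % of control where 0% means no effect; inhibitors lower the polarisation; unlabelled MLL peptide was the positive control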
TRPML1 blocker = qHTS for Inhibitors of the Human Mucolipin Transient Receptor Potential 1 (TRPML1); 390,000 tested, 0.02% active; activity change, negative = inhibition, % (concentration not given with the values); TRPML1-inducible cells, Ca2+ dye fluorescence, FDSS; hits give low values; inhibition of EC80 agonist-evoked calcium signal; Mucolipin-1 (Homo sapiens), Q9GZU1; in the data active means activity change below about -50%; inconclusive means about -30% to -50%; inactive means above about -30%;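 also: stimulus is agonist 54-4 at its EC80 concentration; % is scaled to controls: 0 for no effect and ±100 for the full control effect; compound concentration not given in the record; the text of the record puts the active cut at -80%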
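TRPML1-DL cells, Tet-induced overnight (~16 h, 37 °C) at 1,500 cells/well, were loaded with Ca8 no-wash dye plus quencher for 45-90 min at room temperature. Compounds were pinned during FDSS kinetic reading; agonist 54-4 at EC80 (4 uM final) then added.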
Sfp inh = qHTS Assay for Inhibitors of Bacillus subtilis Sfp phosphopantetheinyl transferase (PPTase); 310,000 tested, 3.5% active; Biochemical Sfp PPTase activity, qHTS; Potency, µM, for inactives: max response, negative = inhibition, actives largely listed as inhibitors; 4'-phosphopantetheinyl transferase ffp (Bacillus subtilis), Q9F4F7; AID 1490, 2009; active = well fitted inhibition curve with a large enough effect; inconclusive = small, poorly fitted or top-dose-only effect, or another doubt; inactive = no such curve, though single readings can be large or run the other way;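 also: the enzyme is Sfp with the accession as filed and its product quenches rhodamine fluorescence; potency is read from the fitted curve at half-maximal effect; 0% = enzyme reaction without inhibitor and -100% = no enzyme wells; top concentration of the series not given in the record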
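After 15 min at room temperature with compound, 15 nM Sfp received 5 uM rhodamine-CoA plus 12.5 uM BHQ-2-ybbR (50 mM Hepes pH 7.6, 10 mM MgCl2). Rate came from the fluorescence difference over 30 min, ex 525/em 598 nm.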
* = called active by the depositor; ? = inconclusive; · = not tested or not shown; [ ] = another dose, or the depositor's remark.

Sample of the layout:
canonical_smiles	Menin-MLL FL inh	TRPML1 blocker	ClpP mod	PINK1 expr mod	TRPV1 potentiator	Sfp inh	TRPML1 ag
CCOC(=O)c1ccc(CNC(=O)CSc2nnc(-c3ccncc3)o2)cc1	4.3	-3	-8.2%	-2.2%	-12	-5%	-0.7
CCOC(=O)C(O)(C1C(=O)CC(C)(C)CC1=O)C(F)(F)F (stereo not drawn)	1.6	-4	-0.6%	1.0%	6	-5%	1.5

This part in full, from the start:
canonical_smiles	Menin-MLL FL inh	TRPML1 blocker	ClpP mod	PINK1 expr mod	TRPV1 potentiator	Sfp inh	TRPML1 ag
CCOC(=O)c1ccc(CNC(=O)CSc2nnc(-c3ccncc3)o2)cc1	4.3	-3	-8.2%	-2.2%	-12	-5%	-0.7
CCOC(=O)C(O)(C1C(=O)CC(C)(C)CC1=O)C(F)(F)F (stereo not drawn)	1.6	-4	-0.6%	1.0%	6	-5%	1.5
Cc1ccccc1-c1nnn(CC(=O)NCc2ccc3c(c2)OCO3)n1	1.8	-3	2.1%	0.8%	-6	-21%	2.2
CC(C)Cc1cc(C(=O)N2CCC(N3CCC(C(=O)N4CCOCC4)CC3)CC2)n[nH]1	-0.9	-5	-2.5%	-1.0%	3	7%	0.3
O=C(CCCc1nc2ccccc2s1)NC1CCOC1=O (stereo not drawn)	-0.2	-1	·	2.8%	-7	15%	-0.3
O=C(NCCc1ccc2c(c1)OCO2)Oc1ccccc1	·	·	0.6%	-0.1%	·	·	-0.2
O=S1(=O)CC(O)C(Nc2ccccc2Cl)C1 (stereo not drawn)	1.8	11	-1.6%	-1.1%	-9	-2%	-0.1
Cc1ccccc1-n1c(=O)n(CCc2ccccc2)c(=O)c2[nH]cnc21	2.0	18	3.1%	-1.4%	-12	-2%	1.0
Cc1nnc(SCC(=O)N2CCN(Cc3ccccc3)CC2)s1	6.3	29	-0.3%	1.5%[38.3 µM]	-3	5%	0.6
COC(=O)C1C(=O)C2=C(CC1C)NC(C)=C(C(=O)OC(C)C)C2c1ccc(C)o1 (stereo not drawn)	4.2	1	-2.2%	-4.4%[38.3 µM]	3	10%	0.3
Cc1c(C(=O)Nc2ccc(C(=O)O)cc2)cnn1C	0.3	-5	1.2%	0.7%	1	16%	-1.0
CCN1C(=O)[C@@H]2[C@@H]3CN(S(=O)(=O)c4ccc(C)cc4)[C@@H](c4ccccc4)[C@@H]3C(=O)C[C@@H]2C1=O	·	-6	-0.1%	1.5%	·	·	-0.1
Cc1ccc(-c2csc3ncnc(N4CCN(c5ccccc5O)CC4)c23)cc1	·	68	-0.5%	6.5%	?	-8%	0.7
COc1ccc(CCNc2nc(=S)[nH]c3cc(OC)c(OC)cc23)cc1OC	2.3	-1	-6.5%	-0.1%	1	14%	1.1
CC(=O)Nc1c(C(=O)c2ccc(F)cc2)oc2ccccc12	0.7	3	-4.0%	8.5%	?	0%	2.0

The list goes on.
canonical_smiles	Menin-MLL FL inh	TRPML1 blocker	ClpP mod	PINK1 expr mod	TRPV1 potentiator	Sfp inh	TRPML1 ag
COc1ccc(Oc2ncc3nc(-c4cc(F)cc(F)c4)c(=O)n(C)c3n2)cc1	1.5	·	·	1.6%	·	-24%	·
Cc1ccc(NC(=O)CN(C)S(=O)(=O)c2cnc[nH]2)cc1C	0.3	-6	-1.1%	-1.1%	-4	8%	-1.3
COc1ccc(S(N)(=O)=O)cc1C(=O)OCC1CCCCC1	2.3	-4	·	0.2%	-6	12%	1.8
COc1ccc(-c2nc(CN3CCC(c4ccccc4)CC3)c(C)o2)cc1OC	0.7	-3	·	-0.8%	-7	8%	0.1
Cc1ccc2nc(NCC(=O)NN)nc(-c3ccccc3)c2c1	1.0	4	·	3.6%	11	5%	1.0
Cc1ccc(N2C(=O)C3C4C=CC(C4)C3C2=O)cc1 (stereo not drawn)	2.4	16	-4.4%	-0.5%	0	11%	-0.8
COc1ccncc1-c1ccc(C2=CC(=O)CC(C)(C)C2=O)cc1	·	13	-1.1%	0.4%	·	·	-0.5
Cc1cccc(C)c1NC(=S)NCc1ccccc1	2.2	-3	-0.2%	0.1%	-3	5%	-0.6
Cc1cccc(OCc2n(CC(=O)OC3CC(C)CCC3C(C)C)c3ccccc3[n+]2C)c1 (stereo not drawn)	0.5	1	·	-2.7%	-9	25µM*	1.5
COc1ccc(S(=O)(=O)N2CCc3ccccc32)cc1OC	1.8	-15	·	2.7%	-3	13%	-0.5
Nc1nc(SCC(=O)NCc2ccccc2)[nH]c(=O)c1NC(=O)c1ccccc1F	1.2	3	1.3%	-1.1%	11	5%	0.5
COc1ccccc1CNC(=O)CN(C)S(=O)(=O)c1ccc2c(c1)n(C)c(=O)c(=O)n2C	·	9	-12%	-0.1%	22	17%	-0.7
CCCCOCCCNC(=O)C[C@@H]1C[C@@]2(C(=O)OC)CCCCC=C2N(CCC2=CCCCC2)C1=O	·	·	1.1%	?	·	·	-0.9
CC(=O)c1cccc(NC(=O)c2ccc(S(=O)(=O)N3CC(C)OC(C)C3)cc2)c1 (stereo not drawn)	·	-14	-1.6%	12%	-26	·	0.3
COc1ccc(CC(=O)NCC(C)(C)N2CCOCC2)cc1	·	7	·	0.8%	-6	11%	0.7

(continued)
canonical_smiles	Menin-MLL FL inh	TRPML1 blocker	ClpP mod	PINK1 expr mod	TRPV1 potentiator	Sfp inh	TRPML1 ag
CC(=O)Nc1ccc(S(=O)(=O)N(C)c2ccc(OCC(=O)OCC(=O)NCc3ccco3)cc2)cc1	1.6	-4	0.4%	1.7%	-12	4%	-0.8
CCc1nc2ccc(C(=O)Nc3cccc(NS(C)(=O)=O)c3)cn2c1N(C)CCN1CCOCC1	·	·	-0.6%	0.8%	·	·	-0.3
CSCCNC(=O)C1(C)CCN1C(=O)CCc1ccccc1 (stereo not drawn)	·	-1	0.3%	0.3%	·	·	0.1
CN(Cc1ccccc1)S(=O)(=O)c1ccc(OCC(=O)Nc2cccc([N+](=O)[O-])c2)cc1	5.2	10	-2.7%	-1.2%	-8	13%	0.2
Cc1nnc(NCc2ccccc2)c2c1nnn2Cc1ccc(F)cc1	·	-4	-1.1%	3.5%	·	·	0.2
CCC(=O)c1ccc(OCC(O)Cn2nnc3ccccc32)cc1 (stereo not drawn)	-5.7	36	0.0%	-1.7%	-5	-5%	-0.1
O=C(NC1CCCC1)C(c1ccccc1F)N(C(=O)Cc1cccs1)c1ccc2c(c1)OCCO2 (stereo not drawn)	5.5	-13	-0.5%	2.1%	6	11%	7.0
Cc1ccc([C@H]2N[C@]3(CCCN(CC4CCCCC4)C3=O)[C@H]3C(=O)N(Cc4ccccc4)C(=O)[C@@H]23)cc1	·	28	0.7%	1.1%	·	·	-0.2
Cc1cc(C)c2c(c1)/C(=N/NS(=O)(=O)c1ccccc1)CCC2	-1.9	3	-0.4%	-1.0%	2	14%	-0.1
CCc1ccc(C2=Nn3c(nnc3-c3cccs3)SC2)cc1	0.2	34	-3.0%	2.1%	-7	-12%	6.3
COc1ccc2cc3cc(C(=O)NCCc4ccccc4)sc3nc2c1Cl	·	0	4.6%	12%	·	·	0.2
CCCCCn1c(N2CCOCC2)nc2c1c(=O)n(CC(N)=O)c(=O)n2C	1.0	7	0.7%	-0.2%	2	-10%	-0.8
CSc1nc2ccccc2c(=O)n1Cc1ccc(F)cc1	-0.7	14	·	8.2%	1	-16%	1.3
Cc1cc(C)n2nc(-c3ccsc3-n3c(C)ccc3C)cc2n1	?	5	1.2%	9.8%	4	50µM*	0.1
Cc1cc(C(=O)N/N=C/C=C/c2ccc([N+](=O)[O-])cc2)n[nH]1	-0.9	0	·	14%	3	8%	-0.1

Next section
canonical_smiles	Menin-MLL FL inh	TRPML1 blocker	ClpP mod	PINK1 expr mod	TRPV1 potentiator	Sfp inh	TRPML1 ag
Cc1ccc2nc(Cl)c3cc(C(=O)NC4CCC(C)CC4)sc3c2c1 (stereo not drawn)	·	-3	?	-0.8%	·	·	0.9
CC(C)CCNC(=S)Nc1ccc(Br)cc1	3.8	33	-1.0%	?	-3	0%	0.5
CC(=O)SC(C)CC(=O)NCc1ccccc1 (stereo not drawn)	-1.7	-1	-0.7%	7.1%[38.3 µM]	5	5%	0.4
COc1ccc(CNC(=O)c2cc3ccccn3n2)c(OC)c1	·	-13	-18%	1.6%	·	·	-0.8
Cc1cccc(CC2S/C(=N/N=C/c3ccco3)NC2=O)c1 (stereo not drawn)	0.6	13	·	4.2%	24	1%	0.4
CCN(CCO)c1nc(SC)nc2c1sc1nc(-c3ccco3)c3c(c12)CCC3	?	0	-3.0%	-0.3%	-1	?	2.5
CCCc1cc(C(=O)N2CCCN(C)CC2)cs1	-1.7	-3	-0.5%	0.0%	11	9%	-0.5
O=C(O)CCCCCn1c(SCC(=O)Nc2ccc(F)cc2)nc2ccsc2c1=O	-0.5	-5	·	-0.3%	-47	15%	0.5
COc1ccccc1NC(=O)Cn1nnc(-c2ccccc2NC(=O)c2cc3ccccc3oc2=O)n1	-0.8	-4	-0.1%	·	-2	-2%	1.1
Cn1c(CCN2CCCC2)nc2cc(NC(=O)COc3ccc(Cl)cc3)ccc21	·	-14	-11%	3.5%	·	·	-0.4
